Bioassay records as filed in PubChem BioAssay.
TAR Tat displ: HIV-1 TAR-Tat binding disruption; HIV-1 TAR RNA, Tat peptide displacement FRET; hits give high values; z-score (no concentration beside the values); 0.6% of 100,000 active;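 further: score is relative to mean and SD of negative controls; some compounds called inactive have numbers as strong as hits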
CDC25B CDK2 inh: human CDC25B-CDK2/CyclinA binding inhibition; HTRF CDC25B-CDK2/CyclinA binding, anti-His/anti-Flag; hits give high values; z-score (test concentration not listed); P30305+P24941; 0.72% of 94,000 active;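 further: score is relative to mean and SD of negative controls; strong numbers were not always called active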
Starred values were filed as active, the others as inactive.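 How the source made its calls: active means z-score from 3 up in half or more of its runs; inactive means the rest.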

What do the screens show for `O=C(O)C1C2C=CC(C2)C1C(=O)NCCCN1CCOCC1` (configuration not stated)?
TAR Tat displ: 0.42; CDC25B CDK2 inh: -1.1

Results for COc1ccc(-c2nc(SCC(=O)Oc3cc(C)ccc3C)n3[nH]c(=O)cc3n2)cc1 ?
TAR Tat displ: 1.5

How did O=C(NC1CCCCC1)N1CCCN(c2nc3cc(F)ccc3n3cccc23)CC1 do in these assays?
TAR Tat displ: -2.5

How did O=C(c1nn2c(c1Cl)NC(c1ccc(Cl)cc1)CC2C(F)(F)F)N1CCSCC1 (configuration not stated) do in these assays?
TAR Tat displ: 0.38; CDC25B CDK2 inh: -0.86

What do the screens show for `Fc1ccc(Cc2cn3cc(-c4ccc(F)cc4)nc3s2)cc1`?
TAR Tat displ: 0.56; CDC25B CDK2 inh: -1.5

How did O=C(CC12CC3CC(CC(C3)C1)C2)N1CCCCC1 do in these assays?
CDC25B CDK2 inh: -1.1

What do the screens show for `O=C1CCCc2cc(S(=O)(=O)N3CCCC(C(=O)NC4CCCc5ccccc54)C3)ccc2N1` (configuration not stated)?
TAR Tat displ: 0.31

What do the screens show for `Cc1ccc(N2C(=O)C3CCCN3C2=S)cc1C` (configuration not stated)?
CDC25B CDK2 inh: -1.1

How did CC1Cn2cc(C(=O)NCCc3c[nH]c4ccccc34)c(=O)c3c(Cl)ccc(c32)O1 (configuration not stated) do in these assays?
TAR Tat displ: 0.75

Results for CN(CCNC(=O)c1ccc(CS(=O)(=O)c2ccc(Br)cc2)o1)C1CCCCC1 ?
TAR Tat displ: 1.7; CDC25B CDK2 inh: -1.9

What do the screens show for `O=C1CC2(CCCC2)C(=O)N1C1CCN(c2nccc(C(F)(F)F)n2)CC1`?
CDC25B CDK2 inh: -1.5

Results for CCCC(=O)Nc1ccccc1SCc1cc(=O)n2nc(C(C)C)sc2n1 ?
TAR Tat displ: -0.14

How did O=C(NC1CCCCCC1)C1c2ccccc2C(=O)N1Cc1cccnc1 (configuration not stated) do in these assays?
CDC25B CDK2 inh: -2

How did COc1ccc(N(Cc2cc(CN3CCOCC3)cs2)S(=O)(=O)c2cn(C)cn2)cc1 do in these assays?
TAR Tat displ: -8.2

How did Cc1nc2c3ccccc3nc(SCC(=O)NCCc3ccc(S(N)(=O)=O)cc3)n2n1 do in these assays?
CDC25B CDK2 inh: -0.65

Results for COC(=O)C1=C(C)Nc2nc(SCC(C)C)[nH]c(=O)c2C1c1ccccc1C (configuration not stated) ?
TAR Tat displ: 1.7; CDC25B CDK2 inh: -2.4

What do the screens show for `CCN1CCN(C(=O)C2Cc3cc(S(=O)(=O)N(CC)CC)ccc3N2C(C)=O)CC1` (configuration not stated)?
TAR Tat displ: 1.8

Results for COc1ccc(COCC(O)CS(=O)(=O)c2ccc(OC)c(OC)c2)cc1 (configuration not stated) ?
CDC25B CDK2 inh: -1.4

Results for Cn1ncc2c(=O)n(Cc3ccccc3)cnc21 ?
TAR Tat displ: -2.1; CDC25B CDK2 inh: -1.3

What do the screens show for `CCN(CC)c1nc(NCc2ccccc2Cl)c2cnn(C)c2n1`?
TAR Tat displ: 0.67

How did C=CCNc1nc2c3ccccc3n(C(C)=O)c2s1 do in these assays?
TAR Tat displ: 2.1; CDC25B CDK2 inh: -2.2

What do the screens show for `Cc1c(C(=O)NC2CCC(C)CC2)oc2ccc(S(=O)(=O)N3CCCCCC3)cc12` (configuration not stated)?
CDC25B CDK2 inh: -0.26

Results for O=C(COc1ccc(F)cc1)Nc1ccc(OCc2cc(=O)n3c4c(sc3n2)CCCC4)cc1 ?
TAR Tat displ: 0.04; CDC25B CDK2 inh: -0.91

How did CC(C)COC(=O)c1ccc2c(c1)C1C=CCC1C(c1ccc(F)cc1)N2 (configuration not stated) do in these assays?
TAR Tat displ: -1.1; CDC25B CDK2 inh: -1

Results for O=C(Nc1nccs1)c1cc(-c2ccc3c(c2)OCCO3)on1 ?
TAR Tat displ: 0.03; CDC25B CDK2 inh: 0.69

How did Cn1cnc2c(=O)oc3ccc(S(=O)(=O)Nc4ccc(Cl)cc4)cc3c21 do in these assays?
TAR Tat displ: 0.77

What do the screens show for `Cc1ccc(C(=O)c2cnc3cc4c(cc3c2S(=O)(=O)c2ccccc2)OCO4)cc1`?
TAR Tat displ: -2.2; CDC25B CDK2 inh: -1.7

Results for C=CCN1C(=O)C(O)(CC(=O)c2ccc(OC)cc2OC)c2cc(Br)ccc21 (configuration not stated) ?
TAR Tat displ: -1.5; CDC25B CDK2 inh: -1.9

Results for Cc1ccccc1Nc1nc2ccccc2c2nnc(C)n12 ?
TAR Tat displ: 0.57

How did O=C(Nc1ccc(F)c(Cl)c1)N1CCOc2ccccc21 do in these assays?
TAR Tat displ: 2

What do the screens show for `CC(C)c1ccc(C2NC(=O)CCC2[N+](=O)[O-])cc1` (configuration not stated)?
TAR Tat displ: -0.43; CDC25B CDK2 inh: 1.4

How did O=C(CN1C(=O)CSc2ccc(S(=O)(=O)N3CCOCC3)cc21)N1CCc2ccccc2C1 do in these assays?
TAR Tat displ: 0.44

What do the screens show for `O=S(=O)(Nc1ccc(N2CCCS2(=O)=O)cc1)c1ccc2c(c1)CCCC2`?
TAR Tat displ: 0.24

Results for CCOC(=O)C(CC)Sc1ccc2nnc(-c3cccc(F)c3)n2n1 (configuration not stated) ?
CDC25B CDK2 inh: -0.83

Results for Cc1cccc(N2CCN([C@H]3CS(=O)(=O)C[C@@H]3S(=O)(=O)c3cccs3)CC2)c1C ?
TAR Tat displ: 0.24; CDC25B CDK2 inh: -1.6

Results for COc1ccc(NC(=O)C2CC2)cc1OC1CCCC1 ?
CDC25B CDK2 inh: -0.05

What do the screens show for `Cc1ccc(C)c(OCc2cc(=O)n3c(-c4ccccc4)csc3n2)c1`?
TAR Tat displ: -1.2; CDC25B CDK2 inh: -1.1

Results for Cc1cc(-c2ccc(C)c(S(=O)(=O)Nc3cccnc3)c2)on1 ?
TAR Tat displ: 1.6

What do the screens show for `O=C(CN1C(=O)CCCc2ccccc21)NCCC1=CCCCC1`?
TAR Tat displ: -0.19

How did Cc1nn(-c2nc3ccc(Br)cc3s2)c2c1C(c1cccc(F)c1F)CC(=O)N2 (configuration not stated) do in these assays?
TAR Tat displ: 1.1

Structural class: the compounds so far with an aryl thioether with sulfur outside any ring (5)
Results for COc1ccc(-c2nc(SCC(=O)Oc3cc(C)ccc3C)n3[nH]c(=O)cc3n2)cc1 ?
TAR Tat displ: 1.5

Results for CCCC(=O)Nc1ccccc1SCc1cc(=O)n2nc(C(C)C)sc2n1 ?
TAR Tat displ: -0.14

How did Cc1nc2c3ccccc3nc(SCC(=O)NCCc3ccc(S(N)(=O)=O)cc3)n2n1 do in these assays?
CDC25B CDK2 inh: -0.65

Results for COC(=O)C1=C(C)Nc2nc(SCC(C)C)[nH]c(=O)c2C1c1ccccc1C (configuration not stated) ?
TAR Tat displ: 1.7; CDC25B CDK2 inh: -2.4

Results for CCOC(=O)C(CC)Sc1ccc2nnc(-c3cccc(F)c3)n2n1 (configuration not stated) ?
CDC25B CDK2 inh: -0.83

Continuation.
Results for O=C(CCC1N=C2c3ccccc3N=C(SCc3ccccc3Cl)N2C1=O)NCc1ccco1 (configuration not stated) ?
TAR Tat displ: -0.37

How did CCN(CC)CCCNC(=O)Cn1nc(-n2cccc2)c2c(C)cc(C)nc21 do in these assays?
TAR Tat displ: 0.15

What do the screens show for `C=CCN1C(=O)/C(=C/c2ccc(OCCOc3cc(C)ccc3C)c(OCC)c2)SC1=S`?
CDC25B CDK2 inh: -1.3

What do the screens show for `CC(=O)Nc1c(C(=O)N2CCN(C)CC2)oc2ccccc12`?
TAR Tat displ: 0.36

What do the screens show for `Cc1ccc(C)c(C2CC(=O)Nc3c2c(C)nn3-c2nncc(-c3ccc(F)cc3)n2)c1` (configuration not stated)?
TAR Tat displ: 3; CDC25B CDK2 inh: -0.17

What do the screens show for `CCOC(=O)C1CCCN(c2c(N3CCN(c4ncccn4)CC3)c(=O)c2=O)C1` (configuration not stated)?
TAR Tat displ: 1.7; CDC25B CDK2 inh: -1.2

Results for CC1CCN(c2ccc(NS(=O)(=O)c3ccc4c(c3)NC(=O)CC(C)S4)cc2)CC1 (configuration not stated) ?
TAR Tat displ: 0.9

What do the screens show for `Nc1nc(-c2ccccc2)nn1C(=O)C1CC1`?
TAR Tat displ: -0.64; CDC25B CDK2 inh: -0.87

How did COc1ccc(C2C(C#N)=C(N)OC3=C2C(=O)CCC3)cc1 (configuration not stated) do in these assays?
CDC25B CDK2 inh: -0.27

Results for Cn1nnnc1SCCCNCc1cccc(OCc2ccc(F)cc2)c1 ?
TAR Tat displ: 0.6; CDC25B CDK2 inh: 0.25

Results for CCCN1C(=O)c2ccc(-c3nc4cc(Cl)ccc4c(=O)o3)cc2C1=O ?
CDC25B CDK2 inh: 0.44

Results for O=C1C=NC(Nc2nc3ccccc3s2)N1 (configuration not stated) ?
CDC25B CDK2 inh: 0.15

How did CN(C)C(CNC(=O)c1ccc(Br)cc1)c1ccco1 (configuration not stated) do in these assays?
TAR Tat displ: 0.71; CDC25B CDK2 inh: -1.7

What do the screens show for `c1ccc(-c2oc3ncnc(NCCCn4ccnc4)c3c2-c2ccccc2)cc1`?
CDC25B CDK2 inh: -0.76

Results for CC(C)=CCC/C(C)=C/CC(C)(C)CNCCN1CCNCC1 ?
CDC25B CDK2 inh: -2.2

How did Cc1cc(C)c2c(=O)[nH]c(SCC(=O)N3CCOCC3)nc2n1 do in these assays?
CDC25B CDK2 inh: 0.4

How did Cc1nc(N)ncc1Sc1ccccc1 do in these assays?
CDC25B CDK2 inh: -1.5

Results for CC1=CC(C)(C)N(C(=O)CSc2nccn2C)c2cc(C)ccc21 ?
TAR Tat displ: -0.48; CDC25B CDK2 inh: -1.1

What do the screens show for `O=C(Cn1c(=O)n(-c2ccc(F)cc2)c(=O)c2sccc21)N1CCCC1`?
CDC25B CDK2 inh: -0.49

What do the screens show for `CSc1ccc(-c2nc(CSCC(=O)NC(C)C)c(C)o2)cc1`?
TAR Tat displ: 1.9; CDC25B CDK2 inh: -1.3

Next section; the last two above are carried over.
What do the screens show for `O=C(Cn1c(=O)n(-c2ccc(F)cc2)c(=O)c2sccc21)N1CCCC1`?
CDC25B CDK2 inh: -0.49

What do the screens show for `CSc1ccc(-c2nc(CSCC(=O)NC(C)C)c(C)o2)cc1`?
TAR Tat displ: 1.9; CDC25B CDK2 inh: -1.3

What do the screens show for `COCCCN[C@H]1CS(=O)(=O)C[C@@H]1S(=O)(=O)c1ccc(F)cc1`?
TAR Tat displ: 0.69; CDC25B CDK2 inh: -1.9

What do the screens show for `Cc1cc(C)cc(NC(=O)CSC2=NS(=O)(=O)c3ccc(C)cc3N2)c1`?
TAR Tat displ: 0.36

What do the screens show for `CC(C)NC(=O)Nc1ccc2snnc2c1`?
TAR Tat displ: 0.39; CDC25B CDK2 inh: 5.2*

How did Cc1ccc(C(=O)c2oc3ccccc3c2NC(=O)c2csnn2)cc1 do in these assays?
TAR Tat displ: 0.37; CDC25B CDK2 inh: -0.24

How did CN(C)C=Nc1nonc1-c1ccc(Cl)cc1 do in these assays?
CDC25B CDK2 inh: -1.8

How did Cn1c(=O)c(=O)n(CC(=O)NCc2ccccn2)c2ccccc21 do in these assays?
TAR Tat displ: 0.07

Results for CCOC(=O)c1c(CN2CCCCC2)n(C)c2cc(Br)c(O)c(CN(C)C)c12 ?
TAR Tat displ: 0.78; CDC25B CDK2 inh: 0.61

How did COC(=O)c1oc2ccccc2c1O do in these assays?
TAR Tat displ: -0.28; CDC25B CDK2 inh: 0.12

Results for COc1cc(Nc2ncc3c(n2)CCN(Cc2ccc(C)s2)C3)cc(OC)c1 ?
TAR Tat displ: 1.2

Results for COC(=O)c1c(-c2cccs2)csc1NC(=O)C(C)(C)C ?
TAR Tat displ: -1.1; CDC25B CDK2 inh: -1.3

What do the screens show for `CC1CN(S(=O)(=O)c2ccc(C(=O)Nc3nc(-c4ccc([N+](=O)[O-])cc4)cs3)cc2)CC(C)O1` (configuration not stated)?
CDC25B CDK2 inh: -3.9

What do the screens show for `Cc1cc(C)c2c(=O)cc(CSc3nnc(NC(=O)c4ccc(F)cc4)s3)[nH]c2c1`?
TAR Tat displ: -5.8

How did COc1ccc(/C=C/c2nc(C#N)c(NCc3ccco3)o2)cc1OC do in these assays?
TAR Tat displ: -0.93; CDC25B CDK2 inh: -1.2

How did COc1ccc(-c2nc3cc(C)c(C)cc3[nH]2)cc1 do in these assays?
CDC25B CDK2 inh: -0.12

What do the screens show for `CS(=O)(=O)CCC(C(=O)N1CCCC1)N1Cc2ccccc2C1=O` (configuration not stated)?
TAR Tat displ: 1.2

What do the screens show for `O=C(OCC1CCCN2CCCCC12)c1cc2ccccc2oc1=O` (configuration not stated)?
CDC25B CDK2 inh: -2.4

What do the screens show for `CCOc1ccc(C(=O)CC2(O)C(=O)Nc3ccc(Br)cc32)cc1` (configuration not stated)?
CDC25B CDK2 inh: 0.99

Results for Cc1cc2n(n1)C(c1ccc(N3CCCC3)cc1)Nc1c(C)cccc1-2 (configuration not stated) ?
TAR Tat displ: -4.6; CDC25B CDK2 inh: -5.2

What do the screens show for `COC(=O)c1ccc(CSc2nc(C(F)(F)F)c3c(c2C#N)CCC3)o1`?
CDC25B CDK2 inh: -0.71

How did Cn1cnc(S(=O)(=O)NC2CCN(Cc3ccccc3)CC2)c1 do in these assays?
TAR Tat displ: 2
